Source: PubChem BioAssay (National Center for Advancing Translational Sciences (NCATS))
miR-21 FLuc: qHTS Assay for Modulators of miRNAs and/orActivators of miR-21 | HeLa miR-21 FLuc reporter, luciferase, 48 h | Potency, µM (highest dose often 38.3 µM), for inactives: at the highest dose reporter change, positive = more light | 340,000 tested, under 10 active | AID 2288, 2010; active = well fitted rising curve with a large enough effect; inconclusive = small, poorly fitted or top-dose-only effect; inactive = no such curve, though single readings can be large or run the other way;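 note: % of control where 0% means no effect; miR-21 action dims this reporter so a rising signal means less miR-21 action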
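HeLa cells stably expressing CMV-driven firefly luciferase with a downstream miR-21 binding sequence, endogenously expressing miR-21, were treated with titrations (up to about 40uM final) for 48 hours at 37 degree Celsius. Luciferase luminescence was read after lysis.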
Rango complex inh: qHTS Assay for Inhibitors of Rango (Ran-regulated importin-beta cargo) - Importin beta complex formation; Importin subunit beta-1 (Homo sapiens), Q14974; Rango CFP/YFP FRET sensor + importin beta, 45 min; Potency, µM (titrated, usually from 92.2 µM), for inactives: at the highest dose inhibition of complex formation; actives 0.031% (n = 340,000); active = rising FRET ratio curve, often small or poorly fitted; inconclusive = mostly compound fluorescence or quenching in the first reads; inactive = flat curves in all reads;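 note: potency is the fitted concentration of half-maximal effect; 0% = DMSO wells and 100% = buffer wells lacking importin beta; nearly all actives have a fitted effect of over 15% in size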
Target sequence (Q14974 whole entry, looked up): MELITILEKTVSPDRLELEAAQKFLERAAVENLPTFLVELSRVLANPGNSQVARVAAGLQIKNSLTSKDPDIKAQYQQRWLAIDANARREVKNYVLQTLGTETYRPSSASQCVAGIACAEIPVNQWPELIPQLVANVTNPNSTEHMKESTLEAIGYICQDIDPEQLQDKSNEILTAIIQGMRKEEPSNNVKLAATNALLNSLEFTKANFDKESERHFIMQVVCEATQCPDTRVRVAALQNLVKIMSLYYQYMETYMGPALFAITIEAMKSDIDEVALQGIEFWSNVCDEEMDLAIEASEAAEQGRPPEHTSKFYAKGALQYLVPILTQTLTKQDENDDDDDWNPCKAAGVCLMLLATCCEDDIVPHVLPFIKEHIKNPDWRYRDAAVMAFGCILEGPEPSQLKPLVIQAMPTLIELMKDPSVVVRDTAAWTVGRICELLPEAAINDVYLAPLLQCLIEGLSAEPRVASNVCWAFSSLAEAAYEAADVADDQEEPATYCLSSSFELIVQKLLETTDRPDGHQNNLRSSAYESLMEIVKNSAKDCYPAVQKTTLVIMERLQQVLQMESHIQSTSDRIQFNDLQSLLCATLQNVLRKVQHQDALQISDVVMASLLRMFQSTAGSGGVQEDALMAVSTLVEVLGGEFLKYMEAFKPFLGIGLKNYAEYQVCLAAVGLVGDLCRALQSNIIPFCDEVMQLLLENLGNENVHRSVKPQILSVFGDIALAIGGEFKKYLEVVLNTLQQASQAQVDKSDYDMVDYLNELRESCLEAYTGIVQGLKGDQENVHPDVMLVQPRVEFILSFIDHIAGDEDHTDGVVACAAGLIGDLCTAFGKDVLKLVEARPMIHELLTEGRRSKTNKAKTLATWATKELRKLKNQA
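Inhibition scored from the CFP 486 nm/YFP 530 nm FRET ratio 45 min after adding 0.125 microM importin beta to 50 nM Rango biosensor preincubated 5 min with compound (room temperature, PBS with DTT, Tween-20, BSA). No-importin wells as positive control.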
Rango dissoc inh: qHTS Assay for Inhibitors of RanGTP induced Rango (Ran-regulated importin-beta cargo) - Importin beta complex dissociation. AID 540253, 2011. actives 0.071% (n = 340,000). Biochemical FRET Rango-importin beta, RanGTP-induced dissociation. Potency, µM (top dose mostly 46.1 µM), without a hit: at the highest dose activity change, negative = inhibition; active means falling FRET ratio curve, often poorly fitted, with flat reads before Ran was added; inconclusive means other falling curves, or compound fluorescence or quenching; inactive means flat or rising ratio curve;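 note: potency is the fitted concentration of half-maximal effect; % of control where 0% means no effect; nearly all actives have a fitted effect of over 45% in size; -100% = wells without RanGTP and RCC1; the record marks most hits as doubtful in a second field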
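Recombinant Rango FRET biosensor (EYFP–snurportin 1 IBB–cerulean CFP10) at 0.1 uM premixed with 0.25 uM importin beta in PBS, 1 mM DTT, 0.02% Tween-20, 0.1% BSA. Compound added 5 min; RanGTP-RCC1 (0.6 uM Ran, 2 mM GTP, 0.2 uM RCC1) then triggers release, read at 45 min.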
GLA inh pH 4.5: qHTS Assay for Inhibitors of Human alpha-Galactosidase at pH 4.5. Alpha-galactosidase A (Homo sapiens), P06280. purified enzyme, 4-MU-alpha-Gal fluorescence, pH 4.5. activity change, negative = inhibition, % at 105 µM. 230,000 tested, under 10 active. AID 1467, 2008; inconclusive = small, poorly fitted or top-dose-only inhibition, or a rising curve; inactive = flat fitted curve, though single readings scatter; no compound was filed as active;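 note: 0% = full activity with enzyme and -100% = basal without enzyme; dose as in the result columns while the protocol names 77 µM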
Numbers without * were called inactive; ? = inconclusive; . = no result given; & = joins results of further samples.

SMILES | miR-21 FLuc | Rango complex inh | Rango dissoc inh | GLA inh pH 4.5
CCCc1cc(=O)[nH]c(SCC(=O)NCc2ccc3c(c2)OCO3)n1 | 0.0% | 3.4% | 10.7% | .
COc1ccccc1N1CCN(C(=O)c2ccc3[nH]c(C)c(C)c3c2)CC1 | 12.8% | 2.8% | 0.7% | .
CN(C)/C(=N\S(=O)(=O)c1ccccc1)c1ccc(Cl)cc1 | -0.7% | 2.0% | 0.4% | .
C=CCN(CC=C)C(=O)c1cccc(S(=O)(=O)N2c3ccccc3CC2C)c1 (centres undefined) | 19.7% | 0.4% | 11.1% | -8.5
Cc1ccc(NC(=O)CN2C(=O)S/C(=C\c3ccccn3)C2=O)cc1 | -2.4% | 0.2% | -25.1% | 6.4
CC1(O)c2ccccc2C(=O)N1CCc1ccccc1F (centres undefined) | -27.2% | 0.6% | ? | -0.9
CC(C)(C)OC(=O)NCCc1nnc(SCC(=O)Nc2cccc(Cl)c2)o1 | -2.6% | 3.6% | 9.6% | 3.4
CCOC(=O)/C(=C/Nc1ccccc1)[N+](=O)[O-] | -5.7% | -0.7% | -2.6% | 7.0
COc1cc(/C=N/n2c(C)n[nH]c2=S)ccc1OCc1ccc(F)cc1 | -66.5% | -3.9% | 7.8% | -5.8
CC(=O)N1CCN(C(=O)c2ccc(OC3CCN(CCc4ccccc4)CC3)cc2)CC1 | -1.8% | 0.2% | 16.0% | .
Nc1nonc1-n1nnc(C(=O)N/N=C/c2ccc(F)cc2)c1-c1cccs1 | 1.6% | 8.2% | 5.0% | .
NC(=O)COC(=O)c1ccc2noc(-c3ccccc3)c2c1 | -55.3% | -0.2% | -6.6% | .
CCOC(=O)Cn1cc(/C=C(\C#N)C(=O)N2CCOCC2)c2ccccc21 | -23.5% | -2.6% | 16.8% | -5.0
Cn1c2ccsc2c2ncn(Cc3ccccc3F)c(=O)c21 | . | ? | -9.5% | .
CCCCCCc1nc(C(N)=O)c2[nH]c(=O)n(-c3ccc(OCC)cc3)c2n1 | 0.7% | 0.3% | 5.5% | .
Cc1ccc(CNC(=O)CCS(=O)(=O)c2ccc(Br)s2)cc1 | -3.4% | 3.5% | 8.5% | 1.3
COc1ccc(NS(=O)(=O)c2cccc(-c3n[nH]c(=S)n3Cc3ccccc3)c2)cc1 | 2.0% | 2.8% | -8.6% | 1.2
COc1ccc(NC(=O)Cc2c(O)c3ccccc3[nH]c2=O)cc1 | -1.7% | 0.9% | -4.8% | 0.3
N#Cc1cc2c(nc1SCC(N)=O)CCCCC2 | -34.8% | 2.2% | 14.0% | 2.7
Cc1c2cc[n+](CCN3CCCCC3)cc2c(C)c2c1[nH]c1ccc(O)cc12 | . | -0.2% | 3.3% | .
CN(C(=O)COC(=O)c1n[nH]c(=O)c2ccccc12)c1ccccc1 | . | -0.9% | -9.1% | .
CCCN(CCC)c1nc(-c2ccccn2)nc2ccccc12 | ? | -2.0% | 10.8% | .
O=C(Cc1ccc(Cl)cc1)N/N=C/c1cccs1 | -1.6% | -2.0% | 27.3% | 0.9
COc1ccc(NC(=O)COC(=O)c2ccc(S(=O)(=O)N(C)c3ccccc3OC)cc2)cc1OC | 0.5% | -0.6% | 13.4% | 2.2
CSc1ccccc1NC(=O)CN(C)C(=O)Cc1c(F)cccc1Cl | 0.7% | -0.2% | 2.0% | .
N#CC(Cc1cccc(CC(C#N)(c2ccccc2)c2ccccc2)c1)(c1ccccc1)c1ccccc1 | 0.9% | -2.6% | -22.9% | .
CCC(C)c1ccc(OCC(=O)Nc2ccc3c(c2)C(=O)NC3=O)cc1 (centres undefined) | 7.6% | -0.1% | -4.0% | .
COc1ccc(CCNC(=O)CC2C(=O)NCCN2CC(C)(C)C)cc1 (centres undefined) | 0.2% | 3.3% | -11.4% | -3.6
CC(=O)N1c2ccccc2C(C)=CC1(C)C | -4.9% | -0.4% | -5.4% | 6.5
CCCOc1ccc2c(=O)c(-c3cc(C(=O)OC)oc3C)c(C)oc2c1 | 4.1% | -2.9% | -19.4% | 4.2
C[C@@H]1O[C@@H](O[C@H]2[C@H](O)[C@@H](O)[C@H](Oc3c(-c4ccc(O)c(O)c4)oc4cc(O)cc(O)c4c3=O)O[C@@H]2CO)[C@H](O)[C@H](O)[C@H]1O | . | -0.9% | 7.4% | .
COc1ccc(Cl)c(CNC[C@H]2O[C@@H](n3cnc(C(N)=O)n3)[C@H](O)[C@@H]2O)c1 | . | 0.3% | 26.4% | .
O=C(Nc1cccnc1)C1(c2ccc(Cl)cc2)CCCC1 | 7.5% | 0.3% | 10.1% | 0.5
O=C(c1n[nH]c(=O)c2ccccc12)N1CCOCC1 | -2.8% | ? | -7.5% | 1.7
O=C(NCc1ccccn1)c1cc(Cl)ccc1OCc1ccccc1 | 7.6% | -1.8% | ? | .
O=C1N(c2ccccc2)c2ccccc2C1(O)C(F)(F)F (centres undefined) | -0.1% | -1.8% | 0.3% | .
COCCN(C(=O)CC1CCCCC1)c1c(N)n(CC(C)C)c(=O)[nH]c1=O | . | -1.5% | -5.7% | .
COc1ccc(C(=O)/C(C#N)=N/Nc2ccccc2[N+](=O)[O-])cc1 | 23.4% | -1.1% | -5.1% | -7.1
CNC(=S)N1CCC(Cc2ccccc2)CC1 | 3.2% | 1.1% | -1.4% | .
CC(C)(C)Cc1nnc(NS(=O)(=O)c2ccc([N+](=O)[O-])cc2)s1 | 3.9% | 2.2% | -1.4% | .
CCOc1ccc(Nc2nc3ccccc3n3cnnc23)cc1 | -19.4% | ? | -14.2% | -6.7
Cc1ccc(S(=O)(=O)N(CC(=O)NCc2ccco2)Cc2ccc(F)cc2)cc1 | -2.3% | -2.3% | 15.1% | 3.9
CC(C)CC(=O)N/C(N)=N/c1nc2ccccc2s1 | -8.7% | -0.9% | -1.7% | 0.5
CC(C)NCC(O)c1ccc2ccccc2c1 (centres undefined) | . | -0.5% | -7.5% | 8.2
Nc1nc(NCc2ccco2)nc(NC2CCCCC2)c1[N+](=O)[O-] | -10.1% | 0.5% | 11.9% | -0.6
CCCNC(=O)/C=C/c1ccc(C(C)C)cc1 | -69.2% | 0.1% | 32.1% | -1.1
S=C1N(c2ccccc2)CN(C2CCCCC2)CN1c1ccccc1 | -2.2% | -0.4% | 9.4% | 0.1
CC(=O)N1c2ccc(S(=O)(=O)N3CCCC3)cc2CC1C(=O)NCc1ccc(N(C)C)cc1 (centres undefined) | 0.6% | 0.2% | 5.1% | .
CCN(Cc1nc2ccccc2c(=O)[nH]1)Cc1nc2ccsc2c(=O)[nH]1 | 6.7% | -5.1% | -11.2% | 6.8
CN(C)c1ccc(/C=C/C(=O)c2cc(Cl)ccc2O)cc1 | -4.8% | ? | ? | -3.1
c1ccc(-c2n[nH]c(-c3ccccn3)n2)nc1 | -16.5%&-39.0% | 1.3%&2.5% | 0.5%&-1.4% | -1.2&-0.7
CC(C)CNC(=O)C1Nc2ccc(OC(F)(F)F)cc2C2C=CCC12 (centres undefined) | . | ? | -24.5% | .
CCCOC(=O)c1cc2ccccc2oc1=O | -31.6% | 2.2% | 9.0% | -13.9
O=C1CN(C(=O)COC(=O)[C@@H]2CC(O)CN2S(=O)(=O)c2ccc(Cl)cc2)c2ccccc2N1 (some centres undefined) | . | 1.6% | -6.6% | .
Cc1ccccc1-n1nnc2c(=O)oc3ccccc3c21 | 10.4% | 0.2% | 0.4% | -8.6
COc1cc(/C=C2/CCc3ccccc3C2=O)cc(OC)c1OC | 24.7% | -0.2% | 32.2% | 0.2
Cc1ccc(N(CC(=O)NCc2ccc(F)cc2)C(=O)c2csnn2)cc1C | -0.8% | -0.2% | 1.6% | -6.9
COc1ccc(C(=O)Nc2ccc(Br)cc2F)cc1S(=O)(=O)N1CCCC1 | . | 1.2% | ? | .
COc1cc2c(cc1NC(=O)C(C)Sc1nc3ccccc3n1C)oc1ccccc12 (centres undefined) | -2.5% | -0.5% | 19.3% | 0.5
CC(C)(C)CC(C)(C)NC(=S)N1CCN(Cc2ccc3c(c2)OCO3)CC1 | -3.8% | 2.7% | 9.1% | -19.8
Further results follow:
SMILES | miR-21 FLuc | Rango complex inh | Rango dissoc inh | GLA inh pH 4.5
N#Cc1ccc(OCC(=O)N(C2CCCCC2)C2CCS(=O)(=O)C2)cc1 (centres undefined) | . | 0.3% | 24.6% | .
O=C(c1cc(-c2ccco2)nn1-c1cccc(Cl)c1)N1CCCCC1 | -0.5% | -2.6% | -11.4% | -7.2
O=S1(=O)N[C@@H](CC2=CCCCC2)C2CCCCC2O1 (some centres undefined) | -2.0% | -0.1% | 31.3% | .
O=C(O)CSc1cc(C(F)(F)F)nc(-c2ccccn2)n1 | -0.8% | 0.5% | 2.0% | 8.3
CC1CC(C)CN(S(=O)(=O)N2CCCC(C(=O)NCCCN3CCCCC3C)C2)C1 (centres undefined) | -3.8% | -3.0% | 12.8% | .
CCCCCNCc1ccc(Cl)cc1 | 3.5% | -1.0% | 11.5% | 8.6
O=C(C1CC(=O)N(C2CCCC2)C1)N1CCN(c2ccccc2)CC1 (centres undefined) | -3.4% | -0.3% | 0.0% | .
CNC(=O)c1ccc(Oc2ccc(C(=O)NC)cc2)cc1 | -3.8% | 5.7% | 0.9% | 3.4
CCOC(=O)[C@@H]1[C@H]2COc3ccc(Br)cc3[C@@H]2N2C(=O)N(c3ccc(F)cc3)C(=O)[C@@]12C | . | 2.0% | -16.3% | .
O=C1CN(C(=O)CSc2nc3ccccc3c(=O)n2CC2CCCO2)c2ccccc2N1 (centres undefined) | -1.0% | 1.1% | -0.3% | 6.6
CC(C)/C=N/NC(=O)c1ccc(Cl)cc1 | -15.2% | 3.6% | -4.8% | 2.8
O=C(NCCN1C(=O)C2C3C=CC(C3)C2C1=O)Nc1cccnc1 (centres undefined) | -8.1% | 1.5% | -8.2% | -6.1
C#CCOc1ccc(Cl)cc1/C=N/O | -11.7% | 2.4% | 0.0% | -1.9
Cc1[nH]n(-c2ccccc2)c(=O)c1/C=N/N(C)c1ccccc1 | -16.7% | 0.6% | -4.6% | -0.7
Cc1ccc(C(=O)OCC(=O)N2CC(C)CC(C)C2)cc1S(=O)(=O)N1CCOCC1 (centres undefined) | 1.4% | -1.0% | 13.7% | .
CCCC(NCC(=O)Nc1ccccc1C(=O)NC1CC1)c1ccccc1 (centres undefined) | . | 2.5% | -0.4% | .
COc1ccc(-n2c(Cc3cccn3C)nnc2SCC(=O)Nc2cccc(Cl)c2)cc1 | -4.6% | -0.3% | -0.5% | -8.5
Oc1ccccc1/C=N/[n+]1ccccc1 | -2.3% | 0.3% | 0.7% | 2.9
CCCCOc1ccc(NC(=O)CN2CCN(Cc3ccccc3)CC2)cc1 | 6.3% | -1.4% | -1.7% | .
O=C(COC(=O)c1n[nH]c(=O)c2ccccc12)Nc1cccc(S(=O)(=O)N2CCOCC2)c1 | . | -6.2% | 4.3% | .
Cc1ccc(NC(=O)c2ccccc2NC(=O)Cc2ccccc2)cc1 | -40.1% | -0.6% | -7.7% | -4.9
Cc1ccc(Cn2nnc3c(=O)[nH]c(C4CCN(S(=O)(=O)c5ccccc5F)CC4)nc32)cc1 | 10.5% | -0.6% | -1.4% | .
c1ccc2c(-c3ccncc3)c[nH]c2c1 | -0.3% | 0.0% | -14.7% | -1.3

Fetched by structure from the list above:
SMILES | miR-21 FLuc | Rango complex inh | Rango dissoc inh | GLA inh pH 4.5
COCCN(C(=O)CC1CCCCC1)c1c(N)n(CC(C)C)c(=O)[nH]c1=O | . | -1.5% | -5.7% | .
O=C(COC(=O)c1n[nH]c(=O)c2ccccc12)Nc1cccc(S(=O)(=O)N2CCOCC2)c1 | . | -6.2% | 4.3% | .
CCCOc1ccc2c(=O)c(-c3cc(C(=O)OC)oc3C)c(C)oc2c1 | 4.1% | -2.9% | -19.4% | 4.2

Some of the compounds tested. The share of hits here may be higher or lower than overall.
